Ab BasE inh = BasE siderophore biosynthesis inhibition. purified BasE, fluorescence polarization binding displacement. 0.1% of 84,000 active. inhibition, % (test concentration not listed). AID 485350;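 active = both replicates above 25% with normal brightness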;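 note: 0% = negative plate control signal and 100% = positive plate control signal; stock transfer was 100 nL into about 30 µL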
LANA-nucl inh = LANA-nucleosome interaction inhibition; FITC-LANA1-23 / chicken nucleosome fluorescence polarization; hits give low values; z-score (concentration not given with the values); 0.3% of 51,000 active; AID 720717;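 active = both repeat wells score below -2 in polarization z-score versus plate sample wells, excluding overly bright wells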;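 note: 100 nL library stock added to about 30 µL; numbers are from one replicate; some results filed as inactive read as strong as hits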
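Assay system: purified chicken nucleosomes with FITC-labelled LANA N-terminal peptide (1-23) / Probe or stimulus: 50 nM FITC-LANA1-23 probe / Compound dosing: pin-transferred compound, 100 nL / Times: compound with peptide–nucleosome mix 10–45 min at room temperature / Technique: fluorescence polarization, 480 nm excitation, 535 nm parallel and perpendicular emission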
The depositor's hits bear a star; x = no result given; & = joins results of further samples. An excerpt; the hit share may differ from the screen's.

SMILES | Ab BasE inh | LANA-nucl inh
O=S(=O)(c1cccc(-c2nnc(SC(F)F)n2-c2ccccc2)c1)N1CCCCC1 | 0.4 | x
O=C(N=Nc1c(O)[nH]c(=O)[nH]c1=O)c1ccccn1 | -1.9 | 0.18
CC(C)(C)C1CCc2onc(C(=O)Nc3ccccc3C(F)(F)F)c2C1 (configuration not stated) | 2.4 | -0.64
Cc1cc(C(=O)COC(=O)[C@@H]2CCCN2C(=O)c2cccs2)c(C)n1Cc1ccco1 | 2.4 | x
O=c1c2ccccc2n2c(=S)[nH]nc2n1-c1ccccc1 | 2.4 | x
N#Cc1ccc(C(CO)CO)nc1 | 1.9 | 0.055
CCCNC(=O)N1CCc2cc(OC)c(OC)cc2C1c1cc2cc3c(cc2[nH]c1=O)OCO3 (configuration not stated) | -1.1 | 0.21
O=C(CSc1ncnc2ccccc12)N1CCOCC1 | 1.4 | x
Cc1nnc(NC(=O)Cc2n[nH]c(=O)c3ccccc23)s1 | 0.6 | x
O=C1c2oc3ccccc3c(=O)c2C(c2cccs2)N1c1nccs1 (configuration not stated) | 1.4 | -0.2
CC(c1nnc(SCC(=O)N(CC#N)c2ccccc2)n1-c1ccc(F)cc1)N1CCCCC1 (configuration not stated) | -0.6 | x
O=S(c1nc2ccccc2[nH]1)C(F)(F)F (configuration not stated) | -1.7 | x
CCCN1C(=O)C2(c3ccccc31)c1c(oc3cc(C)c(C)cc3c1=O)C(=O)N2CCO (configuration not stated) | -0.9 | -0.025
O=C(Nc1cccnc1)c1cc(-c2ccc(F)cc2)no1 | 6.0 | -1.1
COC(=O)NCCSc1nnnn1-c1ccccc1 | 0.2 | 2
CCn1c(=O)c(C(=O)CN(C)CC(=O)Nc2ccccc2Br)c(N)n(Cc2ccccc2)c1=O | -1.4 | x
Cc1c(-c2ccccc2)nc2sc3c(c2c1N)CCCC3 | 3.0 | x
Cc1nn(CC(=O)N2CCCCC2)c(=O)c2ccccc12 | 3.5 | -0.71
CC(C)(C)N1CN=C(SCc2ccc(Cl)cc2)NC1 | 2.7 | x
COc1ccc(/C=C2/NC(=O)NC2=O)cc1 | 3.3 | x

Reprinted at random: 6 entries already listed
SMILES | Ab BasE inh | LANA-nucl inh
Cc1nnc(NC(=O)Cc2n[nH]c(=O)c3ccccc23)s1 | 0.6 | x
O=c1c2ccccc2n2c(=S)[nH]nc2n1-c1ccccc1 | 2.4 | x
CCCN1C(=O)C2(c3ccccc31)c1c(oc3cc(C)c(C)cc3c1=O)C(=O)N2CCO (configuration not stated) | -0.9 | -0.025
O=C(Nc1cccnc1)c1cc(-c2ccc(F)cc2)no1 | 6.0 | -1.1
CCCNC(=O)N1CCc2cc(OC)c(OC)cc2C1c1cc2cc3c(cc2[nH]c1=O)OCO3 (configuration not stated) | -1.1 | 0.21
Cc1nn(CC(=O)N2CCCCC2)c(=O)c2ccccc12 | 3.5 | -0.71

Back to the main list, starting 2 compounds before the break.
SMILES | Ab BasE inh | LANA-nucl inh
CC(C)(C)N1CN=C(SCc2ccc(Cl)cc2)NC1 | 2.7 | x
COc1ccc(/C=C2/NC(=O)NC2=O)cc1 | 3.3 | x
O=C(Nn1cnnc1)c1cc(-c2ccccn2)nc2ccccc12 | 0.8 | x
Cn1c(-c2ccccc2)c(/C=N/NC(=O)C2CC2)c2ccccc21 | 1.3 | x
Cc1ccc2c(n1)sc1c(=O)n(-c3ccccc3)nnc12 | 0.4 | 0.19
O=S(=O)(NCC1CCN(S(=O)(=O)c2ccccc2)CC1)c1cccc(C(F)(F)F)c1 | 0.5 | 0.43
COc1cc2c(cc1OC)C(C)N(C(=O)/C=C/c1ccccc1)CC2 (configuration not stated) | 0.7 | -0.0025
O=C1Nc2ccccc2S/C1=C/Nc1ccc(Cl)cc1 | x | -0.71
O=C(O)CCC1NC(=O)NC1=O (configuration not stated) | -0.8 | 0.086
CCOC(=O)C1=C(C)NC(SCC(N)=O)=C(C#N)C1C1CC=CCC1 (configuration not stated) | 2.3 | x
COCCN1C=C(C(=O)OC)C(c2ccccc2Cl)C(C(=O)OC)=C1 | 8.7 | -0.84
O=C(O)CC1ON(c2ccccc2)C(=S)N1c1ccccc1 (configuration not stated) | -0.4 | -0.39
Cc1c(-c2c(Cl)cccc2Cl)noc1C(=O)CN=S(C)(=O)c1ccc(C(F)(F)F)cn1 (configuration not stated) | -1.3 | x
CC(C)(C)c1cc2c(=O)[nH]nc(N)c2c(=O)[nH]1 | 1.3 | -0.97
O=C(NC1CCCCC1)[C@H]1CCCC[C@H]1C(=O)O | x | -0.36
O=C(COc1ncnc2ccc(Br)cc12)NCCN1C(=O)CSC1=O | -3.2 | x
Cc1ccc(Cl)cc1NC(=O)Cc1nn(C)c(=O)c2ccccc12 | -0.3 | 1.1
Cc1cc(N2CCOCC2)ccc1/C=C1\NC(=O)N(Cc2ccccc2F)C1=O | -5.1 | 2.1
NS(=O)(=O)c1ccc(CCNc2cc(C(=O)N3CCOCC3)c3ccccc3n2)cc1 | -0.2 | x
Nc1nn(-c2ccccc2)nc1NC=O | -0.2 | 1.4
COc1ccc(NC(=O)CSc2nc(-c3ccccc3)cc(=O)[nH]2)cc1 | -1.1 | x
CCOc1cc(/C=N/NC(=O)c2nnn(-c3nonc3N)c2C)ccc1OC(=O)N1CCOCC1 | 1.2 | -0.007

Gathered by group: those above containing a cyano group.
SMILES | Ab BasE inh | LANA-nucl inh
N#Cc1ccc(C(CO)CO)nc1 | 1.9 | 0.055
CC(c1nnc(SCC(=O)N(CC#N)c2ccccc2)n1-c1ccc(F)cc1)N1CCCCC1 (configuration not stated) | -0.6 | x
CCOC(=O)C1=C(C)NC(SCC(N)=O)=C(C#N)C1C1CC=CCC1 (configuration not stated) | 2.3 | x

(further entries)
SMILES | Ab BasE inh | LANA-nucl inh
CCc1noc(C)c1C(=O)OCC(=O)c1ccc(Br)s1 | -6.6 | x
CCCCC(=C1C(=O)CCCC1=O)N1CCCC1 | 5.0 | x
Cc1noc(C)c1COC(=O)C1c2ccccc2Oc2ccccc21 | 0.3 | x
Cc1cc(C(=O)Nc2ccccc2C(=O)O)c(C)o1 | 0.1 | 0.58
CNC(=O)c1ccc(N2C(=O)C3C4C=CC(C4)C3C2=O)cc1 (configuration not stated) | 0.1 | -0.72
Cc1cc2nc(Nc3ccccc3)c3ccccc3n2n1 | 0.1 | x
Cc1ccc(NC(=O)CC2Sc3ccc(C(F)(F)F)cc3NC2=O)c(C)c1 (configuration not stated) | -0.4 | x
O=C(O)c1cccc(S(=O)(=O)N2CCCCC2)c1 | -0.3 | 0.45
c1ccc(-c2cnc(-c3ccccc3)cn2)cc1 | 0.4 | 0.044
CN(Cc1ccccc1)C(=O)Nc1cn(C)c(=O)c2ccccc12 | 2.1 | 0.23
CC(C)c1nnc(NC(=O)C2CCN(C(=O)c3ccco3)CC2)s1 | -1.2 | -0.91
O=C(O)CCNC(=O)c1ccc(N=Nc2ccc(O)c(C(=O)O)c2)cc1 | x | -0.38
O=C(C1CN(CC(=O)N2CCNC2=O)c2ccccc2O1)N1CCOCC1 (configuration not stated) | 1.1 | x
Cc1[nH]n(-c2cccc(Cl)c2)c(=O)c1C=NC1CCS(=O)(=O)C1 (configuration not stated) | 4.6 | 0.15
O=C(NCc1ccc(-c2nc3ncccc3o2)cc1)c1ccc(Cl)cc1 | -3.9 | 2.7
Cc1ccc(Nc2nn(CCC(=O)O)c(=S)n2-c2ccc(C)cc2)cc1 | 0.1 | -0.82
Cc1ccc(S(=O)(=O)N(CC(=O)NC2CCCCC2)Cc2ccco2)cc1C | 0.5 | x
CC(C)CCNC(=O)c1ccc(N(C)S(C)(=O)=O)cc1 | 2.4 | -0.37
CC1(C)CCc2cc(S(=O)(=O)N(Cc3ccccn3)Cc3ccccn3)ccc2O1 | 1.4 | x
NC(=O)c1cc(NS(=O)(=O)/C=C/c2ccccc2)cc(C(N)=O)c1 | 1.9 | x
NC(=O)c1sc2nc3c(cc2c1N)CCCCC3 | 1.5 | 0.033
O=C1NC(=O)/C(=C\c2cn(Cc3ccccc3)nc2-c2cccnc2)S1 | -8.1 | x
CC(=O)Nc1ccc(S(=O)(=O)N2CCC3(CC2)OCCO3)cc1 | 0.7 | x
OC1CCCN(CC(O)c2ccccc2)C1 (configuration not stated) | 0.8 | x
O=C(NCCN1CCN(c2nccc(C(F)(F)F)n2)CC1)c1cccs1 | 1.3 | x
CCC1CCCCN1C(=O)Cn1cc(S(=O)(=O)N(C)C)ccc1=O (configuration not stated) | 3.2 | x
CC(C)(C)NC(=O)CSc1nnc(C(F)(F)F)n1N | 0.1 | x
CCc1c(C)c(C#N)c2nc3ccccc3n2c1-n1nc(C)cc1C | 1.1 | -1.3
CCCn1cnc2sc(C(N)=O)c(C)c2c1=O | 1.0 | -1
N#CC(C(=O)CC12CC3CC(CC(C3)C1)C2)c1nc2ccccc2[nH]1 (configuration not stated) | 0.3 | x
CC1c2cccn2CCN1C(=O)Nc1ccccc1 (configuration not stated) | -4.7 | 1.4
CC1CCCCN1C(=O)C1=CC(c2ccco2)=NS(=O)(=O)N1C (configuration not stated) | 2.9 | -0.32
Cc1cc(C)c2c(=O)[nH]c(SCC(=O)NC34CC5CC(CC(C5)C3)C4)nc2n1 | -0.6 | x
Cn1c(SCc2ccccc2C#N)nnc1C(F)(F)F | 1.6 | x
COc1ccccc1-c1c(C)c(CC(C)C)nc(N)c1C#N | 2.0 | 0.03
CC(=O)N(Cc1ccc2c(c1)OCO2)C1CC(=O)N(c2ccccc2)C1=O (configuration not stated) | 1.4 | -0.78
CCCOc1ccc(NC(=O)CC2SC(N)=NC2=O)cc1 (configuration not stated) | 0.4 | -0.48
C[C@@H](O)[C@H]1C(=O)N2C(C(=O)O)=C(SCCN=CN)C[C@H]12 | -1.2 | 1.7&-0.056
N#CCCN/N=C/c1ccncc1 | -1.1 | x
O=c1cc(-c2ccccc2)nc(SCc2ccccn2)[nH]1 | -0.4 | 0.53
CCCN(CCC)C(=O)Cn1c(=O)n(CCCCC(=O)Nc2ccc(OC)cc2)c(=O)c2ccccc21 | 1.7 | -0.14
CCC1(C)NC(=O)N(/N=C/c2cc(C)n(CC(C)C)c2C)C1=O (configuration not stated) | -3.3 | x
Cc1ccc(SCC(=O)NC2CCCCC2C)cc1 (configuration not stated) | 0.8 | -1.3
Cc1cc(-c2nnc(-c3cccc(Cl)c3)o2)no1 | -3.1 | -0.16
Cc1nnc(SCC(=O)N2CCCCC2)o1 | 2.9 | -0.4
O=C(CSc1nccn1-c1ccccc1)NO | -3.0 | 1.6
Cc1cc(I)ccc1NC(=O)c1ccccc1N(C)S(C)(=O)=O | 2.0 | -0.39
CCCCN(C)C(=O)Cn1ncc2c1-c1ccccc1OC2 | -1.7 | -1.8
CC1=NOC(=O)/C1=C/c1ccc(-c2ccc(Cl)cc2)o1 | -0.9 | 0.018
COCC(=O)NCc1ccc2c(c1)OCO2 | -2.0 | 2.3
CC(C)NS(=O)(=O)c1ccc(Br)c(C(=O)OCC(=O)Nc2nnc(-c3ccccc3)o2)c1 | 1.6 | x
O=C(Oc1ccc(Cl)cc1)C1c2ccccc2Oc2ccccc21 | -1.6 | x
Cc1nc(-c2ccc(CN)s2)cs1 | -1.8 | x
O=S(=O)(c1ccc(C(F)(F)F)cc1)n1nccc1-c1cc(-c2ccccc2)no1 | 2.4 | x
COc1cccc(NC(=O)Cn2c(C(F)(F)F)nc3ccccc32)c1 | x | -0.54
COC(=O)c1ccsc1NC(=O)c1ccc(C)cc1 | 0.1 | x
Cc1cccc(N(CC(=O)Nc2ccccc2)S(C)(=O)=O)c1C | 0.6 | x
COCCn1c(SCc2nc3ccccc3o2)nc2ccccc21 | -0.3 | x
COC(=O)C1=C(C)NC(C)=C(C(=O)OC)C1C(=O)OCC(=O)Nc1cccc2nsnc12 | 0.0 | x
O=C(Cc1ccc(F)cc1)N/N=C/c1ccc(C(=O)O)cc1 | 0.4 | x

More compounds.
SMILES | Ab BasE inh | LANA-nucl inh
O=C1/C(=C/c2ccc(OC(F)F)cc2)NC(=S)N1Cc1ccco1 | -0.2 | x
O=C(COc1ccc2ccccc2c1CN1CCOCC1)N1CCc2ccccc21 | 1.1 | x
OCCSC1SC(=S)SC1SCCO (configuration not stated) | 1.1 | x
Cc1nn(-c2ccccc2)c(Cl)c1C=C(C#N)C#N | -2.1 | x
Nc1ccc(Sc2nc3ccccc3[nH]2)c(Cl)c1 | -0.5 | -1.2
CCc1ccc(NC(=O)CSc2nnc3[nH]c(=O)ccn23)cc1 | -1.1 | 0.47
O=C(COC(=O)C1CC1)c1ccc(OC(F)F)cc1 | 2.2 | x
Cc1ccccc1NC1CC(C)N(C(=O)CN2C(=O)c3ccccc3C2=O)c2c(C)cccc21 (configuration not stated) | 1.1 | x
CC1CCCN(C2(O)C(=O)N(Cc3ccccc3)c3ccccc32)C1 (configuration not stated) | 1.1 | -1.1
Cc1ccc(C)c(N2CCN(c3cc(C)nn4cnnc34)CC2)c1 | 0.1 | -1.5
Nn1cnnc1SCc1ccccc1 | -1.9 | x
O=C1CC(c2n[nH]c(=S)o2)CN1c1ccc(Cl)cc1 (configuration not stated) | -2.3 | 2.8
COC(=O)CN1C=C(C(=O)OC)C(c2ccc(O)cc2)C(C(=O)OC)=C1 | 2.6 | x
Cc1nc2ncnn2c(C)c1CCC(=O)NC1=NCCS1 | -0.8 | x
COC(=O)c1c(NC(=S)NCc2ccco2)sc2c1CCC2 | -2.0 | 0.86
CC(C)(C)C(=O)Nc1ccccn1 | x | -0.18
O=C(c1ccc(Br)o1)N1CCN(c2ccccc2)CC1 | 0.9 | -0.83
CCCNS(=O)(=O)c1ccc(OCC(=O)NCc2ccccn2)cc1 | 0.8 | 0.77
